MgrA DNA FP: S. aureus MgrA activity modulators, primary screen, biochemical, S. aureus Newman, fluorescence polarization; MgrA-DNA binding; inhibition, %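 (about 10 µg/mL by stock and volumes)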; 84,000 compounds, 0.13% hits;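 active = above 50% in either of two replicates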;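 note: 0% = protein plus DNA without compound and 100% = DNA alone without protein; higher means less MgrA bound to DNA so lower polarization; one replicate is shown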
Sa helicase inh: inhibitors of S. aureus replicative helicase, primary screen, biochemical, fluorescence unwinding readout | replicative DNA helicase (DnaC/DnaB), Staphylococcus aureus | purified S. aureus helicase, fluorescence unwinding assay; about half of the hits fall short of the stated cut | inhibition, %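 (tested at about 80 µM)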 | 120,000 compounds, 0.05% hits;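 active = both duplicates at 50% or more, or one of them with a favoured structure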;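 note: 0% = mean of negative control wells and 100% = mean of positive control wells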
* = called active by the depositor. This is a subset (hit frequency here may not be typical).

Sample of the layout:
For O=c1cc(CSc2ccc(Cl)cc2)[nH]c2[nH]n(-c3ccccc3)c(=O)c12 the results were MgrA DNA FP 2.4 and Sa helicase inh 10.0.
For CN1CCN(c2ncnc3scc(-c4ccc(F)cc4)c23)CC1 the results were Sa helicase inh 6.0.
For CCn1c(SCc2nc3ccccc3c(=O)[nH]2)nc2ccccc2c1=O the results were Sa helicase inh -2.0.
`COc1ccc(CNC(=O)Cn2ccc3ccccc3c2=O)cc1` gave MgrA DNA FP -1.6 and Sa helicase inh 14.0.
Cc1cccc(NC(=O)Cn2nnc3ccccc32)c1 was read as Sa helicase inh 11.0.
Screening O=C(O)c1cc2c(cn1)[nH]c1ccccc12 returned Sa helicase inh 24.0.
`COC(=O)c1cc(COC(=O)c2ccc3c(c2)S(=O)(=O)c2ccccc2C3=O)oc1C` gave Sa helicase inh -3.0.

Results, from the start:
For O=c1cc(CSc2ccc(Cl)cc2)[nH]c2[nH]n(-c3ccccc3)c(=O)c12 the results were MgrA DNA FP 2.4 and Sa helicase inh 10.0.
For CN1CCN(c2ncnc3scc(-c4ccc(F)cc4)c23)CC1 the results were Sa helicase inh 6.0.
For CCn1c(SCc2nc3ccccc3c(=O)[nH]2)nc2ccccc2c1=O the results were Sa helicase inh -2.0.
`COc1ccc(CNC(=O)Cn2ccc3ccccc3c2=O)cc1` gave MgrA DNA FP -1.6 and Sa helicase inh 14.0.
Cc1cccc(NC(=O)Cn2nnc3ccccc32)c1 was read as Sa helicase inh 11.0.
Screening O=C(O)c1cc2c(cn1)[nH]c1ccccc12 returned Sa helicase inh 24.0.
`COC(=O)c1cc(COC(=O)c2ccc3c(c2)S(=O)(=O)c2ccccc2C3=O)oc1C` gave Sa helicase inh -3.0.
For CSc1cccc(NC(=S)NCCN(C2CCCCC2)C2CCCC2)c1 the results were MgrA DNA FP 0.5 and Sa helicase inh 4.0.
For CC[C@H]1OC(=O)[C@H](C)[C@@H](O[C@H]2C[C@@](C)(OC)[C@@H](O)[C@H](C)O2)[C@H](C)[C@@H](O[C@@H]2O[C@H](C)C[C@H](N(C)C)[C@H]2O)[C@](C)(O)C[C@@H](C)CN(C)[C@H](C)[C@@H](O)[C@]1(C)O the results were MgrA DNA FP -1.6.
For CC1=CCC2(C(=O)OC(C)(C)OC2=O)C(c2ccccc2)C1 (stereo not drawn) the results were Sa helicase inh 5.0.
COCCNC(=O)c1ccccc1NC(=O)Nc1ccccc1 was read as MgrA DNA FP -1.1 and Sa helicase inh 4.0.
`O=C(NCCC1=CCCCC1)c1cccnc1SCc1ccccc1Cl` gave MgrA DNA FP -1.2 and Sa helicase inh 3.0.
Screening C=C(C)CN=c1scc(-c2cccs2)n1/N=C/c1ccc(O)c(O)c1 returned Sa helicase inh 0.0.
O=C1OC(c2ccccc2)=N/C1=C\c1ccccc1 was read as MgrA DNA FP -1.2.
`CN1C2=C(C(=O)CCC2)C(c2cccc3ccccc23)C2=C1CCCC2=O` gave MgrA DNA FP 0.6 and Sa helicase inh -11.0.
O=C(c1ccc(CSc2nc3ccncc3[nH]2)cc1)N1CCCCC1 was read as Sa helicase inh -22.0.
For O=C(Cc1nc2ccccc2[nH]1)C(F)(F)F the results were MgrA DNA FP 4.7 and Sa helicase inh 17.0.
Screening O=S1(=O)C=C(SCCN2CCCCC2)c2ccccc21 returned Sa helicase inh 6.0.
N#CCCN(CCc1ccccn1)C(=S)Nc1cccc(C(F)(F)F)c1 was read as MgrA DNA FP 2.7.
COC(=O)c1c(C(F)(F)F)nc(C(F)F)c(C(=O)O)c1CC(C)C was read as MgrA DNA FP -1.3 and Sa helicase inh 10.0.
`COc1cccc(-c2csc(N3CCN(C(=S)NCc4ccco4)CC3)n2)c1` gave MgrA DNA FP 16.2 and Sa helicase inh 3.0.
`CC(O)c1nc2ccccc2n1Cc1ccccc1` (stereo not drawn) gave MgrA DNA FP -0.6 and Sa helicase inh 13.0.
`Nc1cc(-c2nc3ccccc3o2)ccc1Cl` gave Sa helicase inh -53.0.
For Cc1ccc(N(Cc2ccco2)C(=O)c2cc3ccccc3oc2=O)cc1 the results were MgrA DNA FP 8.5 and Sa helicase inh 18.0.
Screening COc1ccccc1NC1=NC(CO)(CO)CS1 returned MgrA DNA FP -1.6.
For CC(=O)Nc1ccc(S(=O)(=O)NCC2CCN(CC3CCCCC3)CC2)cc1 the results were MgrA DNA FP -1.9 and Sa helicase inh 15.0.
`c1ccc(CSc2ccc(-c3ccco3)nn2)cc1` gave MgrA DNA FP 1.9 and Sa helicase inh 1.0.
For O=C(CSc1nnc(-c2ccco2)o1)NC(c1ccccc1)c1ccccc1 the results were MgrA DNA FP -0.4 and Sa helicase inh 1.0.
Cc1ccccc1/[N+]([O-])=C/c1cccs1 was read as Sa helicase inh 13.0.
For O=C(O)Cn1cc(/C=C2\C(=O)NN(c3ccccc3)C2=O)c2ccccc21 the results were MgrA DNA FP -2.8 and Sa helicase inh 17.0.
Cc1ccc(N2C(=O)N(CC(N)=O)c3ccccc3S2(=O)=O)cc1 was read as Sa helicase inh -1.0.
Screening CCN(CC)C(=O)CC(c1ccc(F)cc1)c1ccco1 (stereo not drawn) returned Sa helicase inh 0.0.
Screening COc1ccc(N2CCN(CCNC(=O)c3ccc(NC(=O)C4CCCO4)cc3)CC2)cc1 (stereo not drawn) returned MgrA DNA FP 0.9 and Sa helicase inh 11.0.
For N#CNC(N)=Nc1ccccc1 the results were MgrA DNA FP -1.3 and Sa helicase inh -1.0.
Cc1cccc(C(=O)Nc2cc(C(F)(F)F)ccc2-n2cncn2)c1 was read as Sa helicase inh -8.0.
`CC(C(=O)O)N1C(=O)CCC1=O` (stereo not drawn) gave MgrA DNA FP -3.3 and Sa helicase inh 10.0.
O=C(CCSc1nnc2sc3ccccc3n12)Nc1cccnc1 was read as Sa helicase inh 11.0.
For O=C(NCCN1CCOCC1)c1ccco1 the results were Sa helicase inh 6.0.
`CCOC(=O)Cc1csc(NC(=O)CC)n1` gave MgrA DNA FP 3.0 and Sa helicase inh 18.0.
CCOc1ccc2nc(NCCCNC(=O)c3cc(OC)c(OC)c(OC)c3)c(C#N)cc2c1 was read as MgrA DNA FP 0.4 and Sa helicase inh 19.0.

Three entries out of the list, arranged by formula weight, highest first.
Screening COc1ccc(N2CCN(CCNC(=O)c3ccc(NC(=O)C4CCCO4)cc3)CC2)cc1 (stereo not drawn) returned MgrA DNA FP 0.9 and Sa helicase inh 11.0.
For O=C(O)Cn1cc(/C=C2\C(=O)NN(c3ccccc3)C2=O)c2ccccc21 the results were MgrA DNA FP -2.8 and Sa helicase inh 17.0.
`CC(O)c1nc2ccccc2n1Cc1ccccc1` (stereo not drawn) gave MgrA DNA FP -0.6 and Sa helicase inh 13.0.

More results follow.
`CCn1c2ccccc2c2cc(NC(=O)COC)ccc21` gave MgrA DNA FP 1.1 and Sa helicase inh 3.0.
`CC(C)(C)OC(=O)NCCN1C(=O)CC2(CCCC2)C1=O` gave MgrA DNA FP -2.1.
Screening CCCNC(=O)c1nnc(Cc2ccc(OC)c(OC)c2)o1 returned MgrA DNA FP 0.6 and Sa helicase inh 6.0.
Screening Cc1sc2ncnc(Nc3ccc4c(c3)OCO4)c2c1C returned Sa helicase inh -24.0.
For O=[N+]([O-])c1cccc(/C=C/c2nc(C=Nc3cc(Cl)ccc3Cl)c(O)o2)c1 the results were MgrA DNA FP 2.8.
For COc1ccc2c3c1OC1C(O)C=CC(C=C2)C31CCN(C)C (stereo not drawn) the results were MgrA DNA FP 1.8 and Sa helicase inh 0.0.
For Cc1noc(C)c1CSc1ccccc1C(=O)N1CCN(c2ccccc2)CC1 the results were Sa helicase inh 5.0.
Screening COC(=O)C1=C(C)N(Cc2cccnc2)C(=O)C1 returned MgrA DNA FP 0.1 and Sa helicase inh 16.0.
For C/C(=N\NC(=O)C1CCCCC1)c1cccs1 the results were MgrA DNA FP -2.0.
O=c1c2cc3c(=O)n(-c4ccc(Cl)cc4)c(=O)c3cc2c(=O)n1-c1ccc(Cl)cc1 was read as MgrA DNA FP -3.5 and Sa helicase inh 0.0.
`NC(=O)C1CCCN(C(=O)CNC(=O)C23CC4CC(CC(C4)C2)C3)C1` (stereo not drawn) gave Sa helicase inh 0.0.
`CCN1C(=O)/C(=C/c2ccc(Cl)cc2)NC1=S` gave MgrA DNA FP 1.6 and Sa helicase inh 0.0.
For O=S(=O)(c1ccc(Cl)cc1)c1ccc(N=Cc2ccccc2O)cc1Cl the results were MgrA DNA FP 6.8.
COc1cccc(C(=O)NN2C(=S)N(c3ccccc3)C(=O)C2CC(N)=O)c1 (stereo not drawn) was read as MgrA DNA FP 0.3 and Sa helicase inh -2.0.
Screening CCC(C(=O)N1CCCCC1)n1ncn2c(cc3occc32)c1=O (stereo not drawn) returned MgrA DNA FP -0.8 and Sa helicase inh -1.0.
For CC1=Nc2ccc(Cl)cc2C(c2ccccc2)N1CC(=O)NN (stereo not drawn) the results were MgrA DNA FP 2.1 and Sa helicase inh -4.0.
For CC(C)CCNC(=O)C1CCCN(S(C)(=O)=O)C1 (stereo not drawn) the results were MgrA DNA FP 3.3 and Sa helicase inh 6.0.
COc1ccc(NC(=O)c2cccnc2Nc2ccc(OC)cc2)cc1 was read as Sa helicase inh 2.0.
`Cc1[nH]n(C)c(=O)c1N=Nc1ccc(Br)cc1` gave MgrA DNA FP -0.9.
Screening CN(C)CCNC(=O)C12CC3(C)CC(C)(CC(C)(C3)C1)C2 returned MgrA DNA FP 7.2 and Sa helicase inh 4.0.
`Cc1cc(N2CCN(c3ccccc3)CC2)n2nc(-c3ccccc3)cc2n1` gave MgrA DNA FP 0.7 and Sa helicase inh -3.0.
`O=C(NCc1cccnc1)N(c1ccccc1)c1ccccc1` gave Sa helicase inh 6.0.
Screening Cc1c(C(=O)/C=C/N(C)C)nnn1-c1ccccc1 returned MgrA DNA FP 0.6.
Screening Cc1ccccc1NS(=O)(=O)c1ccc2c(c1)c(=O)n(C)c(=O)n2C returned MgrA DNA FP 0.2 and Sa helicase inh 0.0.
For Cn1c2ccccc2c2cnn(CC(=O)N3CCCCC3)c(=O)c21 the results were Sa helicase inh -20.0.
CCOc1cc(C2C(C(=O)OCCOC)=C(C)NC3=C2C(=O)CC(c2ccc(OC)cc2)C3)ccc1O (stereo not drawn) was read as MgrA DNA FP -1.1.
Screening CCN(CC)c1ccc(/C=C2/SC(=O)N(CNc3ccccc3OC)C2=O)cc1 returned MgrA DNA FP -2.2.
Screening O=C(Nc1cccc(F)c1)N1CCN(Cc2ccccc2)CC1 returned MgrA DNA FP -0.7 and Sa helicase inh 1.0.
`COc1ccc(N2CCN(C(=O)CSc3ccc(S(=O)(=O)N(C)C)cn3)CC2)cc1` gave Sa helicase inh -2.0.
Cc1ccc2c(c1)N(CC(=O)NC1CCCC(C)C1C)C(=O)c1cccnc1O2 (stereo not drawn) was read as MgrA DNA FP 4.8 and Sa helicase inh 9.0.
`CS(=O)(=O)CCC(C(=O)N1CCCC1)N1Cc2ccccc2C1=O` (stereo not drawn) gave Sa helicase inh -21.0.
For O=C(OCC1CCCN2CCCCC12)c1cc2ccccc2oc1=O (stereo not drawn) the results were MgrA DNA FP -0.4.
Screening S=c1sc2c(N3CCOCC3)ncnc2n1-c1ccccc1 returned Sa helicase inh 1.0.
`O=c1cc(CNc2ccc(Br)cc2)nc2sccn12` gave Sa helicase inh 3.0.
O=C(NCc1ccccc1)c1ccco1 was read as MgrA DNA FP -1.1 and Sa helicase inh 9.0.
For Cn1nc(-c2ccccc2F)c2cc(C(=O)NCCCN3CCN(c4ccc(F)cc4)CC3)sc21 the results were MgrA DNA FP -1.9 and Sa helicase inh 17.0.
For CS(=O)(=O)N1Cc2ccccc2CC1C(=O)OCC(=O)Nc1sccc1C#N (stereo not drawn) the results were Sa helicase inh -24.0.
NCC1Cc2ccccc2O1 (stereo not drawn) was read as MgrA DNA FP 1.0 and Sa helicase inh 5.0.
COc1ccc(S(=O)(=O)NC(C)C(=O)NCC2CCCO2)cc1Cl (stereo not drawn) was read as MgrA DNA FP -3.6 and Sa helicase inh 5.0.
`COc1ccc(-c2c(C)oc3cc(OC)ccc3c2=O)cc1` gave Sa helicase inh 2.0.
COc1ccc(C2OC(=O)CC2C(=O)NC2CCCC2)cc1OC (stereo not drawn) was read as MgrA DNA FP 1.1 and Sa helicase inh -2.0.
Screening O=C1CC2(CCCC2)C(=O)N1c1ccc(Br)cc1 returned MgrA DNA FP -1.7.
CS(=O)(=O)c1ccccc1C(=O)Nc1ccc(N2CCCCC2)cc1 was read as Sa helicase inh 7.0.
For CC1=CC(C)C(C2OCC(C)CO2)C(C)C1 (stereo not drawn) the results were MgrA DNA FP -3.8 and Sa helicase inh 14.0.
For O=c1c2cc(NC(=S)N3CCCC3)ccc2nc2n1CCCCC2 the results were MgrA DNA FP -3.0 and Sa helicase inh 7.0.
Screening O=C(CCC1CCCCC1)OCCN1CCCC1=O returned MgrA DNA FP 0.3 and Sa helicase inh -8.0.
Cc1ccc(CC(=O)c2ccc(Cl)cc2)cc1 was read as MgrA DNA FP 0.4.
O=C(OCc1cc(=O)oc2cc(O)ccc12)c1cc(S(=O)(=O)N2CCOCC2)ccc1F was read as Sa helicase inh -14.0.
For CC(=O)OC1CC(c2ccccc2)N(C(C)=O)C(c2ccccc2)C1c1ccccc1 (stereo not drawn) the results were Sa helicase inh -1.0.
`Cc1cc2cc(OCC(=O)O)ccc2n1C` gave Sa helicase inh -21.0.
`CN(Cc1ccccc1)c1nnc(NC(=O)NCc2ccccc2)s1` gave MgrA DNA FP -0.2 and Sa helicase inh 0.0.
For COc1ccc(NCC(=O)N2CCCC2)cc1Cl the results were Sa helicase inh 27.0.
